ALR H2O2 inh: inhibitors of human sulfhydryl oxidase ALR | P55789 | purified ALR, DTT oxidation, H2O2 HRP-luminol luminescence | inhibition, % (test concentration not listed) | 290,000 tested, 3.8% active;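 active = mean and each replicate at 75% or more; inconclusive = only one of the two met; inactive = neither met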;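 note: stock transfer was 7.5 nL into about 7.5 µL; 0% = neutral wells and 100% = wells with inactivated enzyme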
Beta cell apopt: beta cell apoptosis inhibition; INS-1E cytokine-induced death, ATP luminescence, 48 h; percent of positive-control rescue, neutral wells zero; 300,000 tested, 0.8% active; AID 435005; protection from apoptosis, % (no concentration beside the values);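 active = all replicates at 75% or more, or half of them and the mean; inconclusive = half reach 75% but not the mean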;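 note: 0% = cytokine-treated negative control wells and 100% = positive control rescue; higher means more ATP so stronger rescue from cytokine killing; wells of about 40 µL received 100 nL stock; the first replicate is given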
Calb FLC: affects C. albicans growth with fluconazole; C. albicans CaCi-2 (fluconazole-resistant clinical isolate) + fluconazole, Alamar Blue growth, 48 h; growth inhibition, % (test concentration not listed); 300,000 tested, 0.57% active; AID 1979;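 active = most replicates above 75%; inconclusive = exactly half above 75%; inactive = most below 75%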;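 note: all wells also contain fluconazole at 8 µg/ml as a sub-toxic cotreatment; 0% = median of DMSO wells and 100% = median of geldanamycin control wells; wells of about 8 µL received 7.5 nL stock; the first replicate is given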
B2AR ag: activates human beta-2 adrenergic receptor causing internalization | P07550 | Am2.2-beta2AR cells, FAP receptor internalization, flow cytometry; reference of the scale not given here | 340,000 tested, 0.43% active | AID 504454 | response, % (test concentration not listed);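 active = response above a set limit, near 3 SD of response in nonfluorescent compounds, cut at about 42% in these data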;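 note: stock transfer was 100 nL into about 11 µL; a reference agonist was the positive control; negative values mostly stem from fluorescent compounds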
rRNA inh HTS: inhibits bacterial ribosomal RNA function over humanized ribosomes; E. coli WT GFP vs humanized-ribosome RFP mutants, fluorescence, 24 h; hits give low values; DMSO median 0, no signal -100; AID 720706; GFP signal change (wild-type ribosome), % (concentration not given with the values); 350,000 tested, 1.6% active;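 active = significant combined selectivity score with lowered wild-type GFP, culture density cut under 30%, mutant RFP and density less affected; inactive = any of these conditions unmet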; note: one replicate is shown; some compounds called inactive have numbers as strong as hits
T cruzi repl: blocks replication of Trypanosoma cruzi. 300,000 tested, 1.4% active. AID 1885. inhibition, % (no concentration beside the values). T. cruzi beta-gal in NIH3T3, luminescence, 90 h;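 active = mean inhibition across valid replicates above about 55%, limit read from the data; inconclusive = mean below that limit but half or more replicates reach it; inactive = mean below it, under half of replicates reach it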;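 note: signal also drops with host cell toxicity which is not excluded here; 0% = plate median of DMSO wells and 100% = zero luminescence signal; higher percent means less beta-gal luminescence so fewer parasites; stock transfer was 50 nL into about 50 µL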
LANA-H2A inh: blocks KSHV LANA binding to histone H2A/H2B. AID 2629. cell-free LANA-H2A/H2B peptide, fluorescence polarization. inhibition, % (concentration not given with the values). 320,000 tested, 0.6% active. Q9QR71; in the data active = inhibition mostly above about 10%, no sharp cut-off; inactive = mostly below about 6.7%;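 note: stock transfer was 7.5 nL into about 10 µL; 0% = median of vehicle wells and 100% = median of positive control wells; one replicate is shown; the record names a cut of 25% in any replicate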
Target sequence (Q9QR71 whole entry, looked up): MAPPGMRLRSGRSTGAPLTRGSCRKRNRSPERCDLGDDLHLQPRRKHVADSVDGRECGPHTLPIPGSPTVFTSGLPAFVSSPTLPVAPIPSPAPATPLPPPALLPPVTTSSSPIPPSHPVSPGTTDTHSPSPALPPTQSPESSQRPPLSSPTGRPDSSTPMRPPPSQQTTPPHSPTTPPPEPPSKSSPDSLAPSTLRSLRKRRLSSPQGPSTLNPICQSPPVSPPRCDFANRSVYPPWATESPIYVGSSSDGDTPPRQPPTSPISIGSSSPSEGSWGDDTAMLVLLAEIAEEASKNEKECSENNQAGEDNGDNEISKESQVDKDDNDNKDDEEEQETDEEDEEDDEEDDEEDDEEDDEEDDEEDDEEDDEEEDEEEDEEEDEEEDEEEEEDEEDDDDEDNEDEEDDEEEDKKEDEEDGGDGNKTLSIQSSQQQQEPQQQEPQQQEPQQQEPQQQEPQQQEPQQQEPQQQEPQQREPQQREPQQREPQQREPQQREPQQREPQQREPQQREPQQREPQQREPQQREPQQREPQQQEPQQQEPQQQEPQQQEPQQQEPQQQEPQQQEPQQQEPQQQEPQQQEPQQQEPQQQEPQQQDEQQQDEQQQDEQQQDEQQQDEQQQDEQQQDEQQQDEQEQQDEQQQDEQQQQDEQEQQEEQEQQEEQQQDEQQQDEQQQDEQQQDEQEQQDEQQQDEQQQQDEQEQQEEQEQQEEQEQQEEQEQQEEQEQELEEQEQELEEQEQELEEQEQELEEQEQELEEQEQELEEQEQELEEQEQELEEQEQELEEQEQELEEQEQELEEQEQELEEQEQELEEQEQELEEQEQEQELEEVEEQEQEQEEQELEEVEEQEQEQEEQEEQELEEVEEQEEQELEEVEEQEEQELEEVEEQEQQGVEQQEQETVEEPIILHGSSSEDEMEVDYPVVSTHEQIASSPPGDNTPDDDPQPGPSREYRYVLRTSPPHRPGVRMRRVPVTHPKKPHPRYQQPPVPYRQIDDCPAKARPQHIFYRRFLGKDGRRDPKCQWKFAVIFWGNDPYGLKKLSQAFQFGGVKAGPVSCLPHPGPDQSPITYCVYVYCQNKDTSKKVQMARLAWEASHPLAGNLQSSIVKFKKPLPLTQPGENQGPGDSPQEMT
Bfl-1 A1 inh: inhibitors of the anti-apoptotic protein A1, read as caspase activation. caspase activation, % (no concentration beside the values). 330,000 tested, 0.066% active. MEF A1-2A-BIM cells, Caspase-Glo 3/7 luminescence, 3 h; percent of clofoctol response, vehicle zero;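 active = over half of replicate activation scores above 10%, or exactly half above 10 with the replicate mean above 10; inconclusive = replicate mean below 10 yet half the replicates above 10; inactive = over half of replicates below 10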;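 note: wells of about 30 µL received 50 nL stock; many hits fall short of the cut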
rRNA inh HTS OD600: also measured in rRNA inh HTS; calls as there; OD600 change, %; measured here: OD600 growth;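 optical density of the mix in the first replicate; 0 = DMSO median and -100 = no signal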
rRNA inh HTS RFP: further read-out of rRNA inh HTS, marked with its call; RFP signal change, %; measured here: RFP humanized mutant strains;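 first replicate; 0 = DMSO median and -100 = no signal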
Numbers without * were called inactive; & = joins results of further samples. The list is partial (hit frequency here may not be typical).

Screening Cc1cccc(CNc2ncnc3ccc(-c4cccnc4)cc23)c1 returned ALR H2O2 inh 0.9, Beta cell apopt -8.8, B2AR ag -3.8, rRNA inh HTS -40.6, LANA-H2A inh -8.0, Bfl-1 A1 inh 1.3, rRNA inh HTS OD600 -50.0 and rRNA inh HTS RFP -4.0.
`Cc1cccc(NC2=NC(=S)N(c3ccc(C(=O)O)cc3)C23CCCCC3)c1` gave ALR H2O2 inh -22.2, Beta cell apopt -4.9, Calb FLC -6.4, B2AR ag 8.2, T cruzi repl -17.1, LANA-H2A inh 0.7 and Bfl-1 A1 inh inconclusive.
For CCOC(=O)CN(C(=O)CSc1nnc(-c2cccc(OC)c2)o1)c1ccc(F)cc1 the results were ALR H2O2 inh -14.0, Beta cell apopt -5.9, Calb FLC 4.8, B2AR ag 2.1, T cruzi repl 0.1, LANA-H2A inh -0.6 and Bfl-1 A1 inh 0.7.
`COc1ccc(COC(=O)N/C=C/c2ccco2)cc1` gave ALR H2O2 inh 14.7, Beta cell apopt -5.8, Calb FLC inconclusive, B2AR ag 6.4, rRNA inh HTS 5.4, T cruzi repl -2.4, LANA-H2A inh 3.1, Bfl-1 A1 inh 0.1, rRNA inh HTS OD600 14.8 and rRNA inh HTS RFP 0.4.
Cc1ccc(SCC(=O)Nc2ccc(S(=O)(=O)Nc3ncccn3)cc2)cc1 was read as ALR H2O2 inh 89.5*, Beta cell apopt -3.7, Calb FLC 0.9, B2AR ag -1.3, rRNA inh HTS 5.2, T cruzi repl -4.8, LANA-H2A inh -4.9, Bfl-1 A1 inh 0.5, rRNA inh HTS OD600 3.3 and rRNA inh HTS RFP 1.9.
Screening CCCn1c(N)c(C(=O)CSc2nnc(-c3ccoc3C)n2C)c(=O)n(C)c1=O returned ALR H2O2 inh -15.5, Beta cell apopt -0.5, B2AR ag -6.7, rRNA inh HTS 2.6, LANA-H2A inh 3.9, Bfl-1 A1 inh 0.8, rRNA inh HTS OD600 2.0 and rRNA inh HTS RFP -2.0.
For COc1ccc(NC(=O)C/C(C)=N/NC(=O)C(=O)NC(C)C)c(OC)c1 the results were ALR H2O2 inh 1.9, Beta cell apopt -6.5, Calb FLC 8.5, B2AR ag 7.3, rRNA inh HTS 2.5, T cruzi repl -10.6, LANA-H2A inh -3.0, Bfl-1 A1 inh 0.2, rRNA inh HTS OD600 10.0 and rRNA inh HTS RFP -3.5.
`CCc1ccc(N2CC(C(=O)Nc3ccc(S(=O)(=O)NCC4CCCO4)cc3)CC2=O)cc1` (stereo unspecified) gave ALR H2O2 inh -1.2, Beta cell apopt -1.3, Calb FLC -1.1, B2AR ag 1.0, rRNA inh HTS 12.7, T cruzi repl -22.0, LANA-H2A inh 0.7, Bfl-1 A1 inh 0.7, rRNA inh HTS OD600 11.8 and rRNA inh HTS RFP -0.6.
`CCCCN(C/C=C/c1ccccc1OC)Cc1ccccc1` gave ALR H2O2 inh -2.7, Beta cell apopt 2.7, Calb FLC -8.5, B2AR ag 4.5, rRNA inh HTS -22.9, T cruzi repl 16.0, LANA-H2A inh -2.6, Bfl-1 A1 inh 1.2, rRNA inh HTS OD600 -20.3 and rRNA inh HTS RFP -4.5.
For CCN(CC(=O)Nc1c(F)cccc1F)C(=O)CCN1C(=O)c2cccc([N+](=O)[O-])c2C1=O the results were ALR H2O2 inh -14.1, Beta cell apopt -9.1, Calb FLC 4.9, B2AR ag 8.8, rRNA inh HTS 3.1, T cruzi repl 2.6, LANA-H2A inh -0.6, Bfl-1 A1 inh 0.4, rRNA inh HTS OD600 3.0 and rRNA inh HTS RFP 1.3.
COC(=O)CSc1nc(N)c(C#N)c(CC(C)C)c1C#N was read as ALR H2O2 inh -4.1, Calb FLC -8.0, B2AR ag 27.5, T cruzi repl -1.0, LANA-H2A inh -0.7 and Bfl-1 A1 inh 0.8.
Screening CCNC(=O)C(Sc1ccccc1)c1ccccc1 (stereo unspecified) returned ALR H2O2 inh -8.8, Beta cell apopt -2.2, Calb FLC 1.7, B2AR ag 3.6, T cruzi repl -11.5, LANA-H2A inh 12.6 and Bfl-1 A1 inh 1.1.
Screening CCOC(=O)Cn1nnc(-c2ccccc2)n1 returned ALR H2O2 inh 2.0, Beta cell apopt 1.8, Calb FLC -9.6, B2AR ag 0.0, T cruzi repl -10.8, LANA-H2A inh -2.6 and Bfl-1 A1 inh -0.9.
Screening Cc1cc(Cl)c(S(=O)(=O)NCc2ccncc2)cc1OCC(N)=O returned ALR H2O2 inh -7.8, Beta cell apopt -4.0, Calb FLC -4.8, B2AR ag 2.5, T cruzi repl -6.7, LANA-H2A inh 5.5 and Bfl-1 A1 inh 0.4.
For CC(C)CNc1cc(Cl)c(S(=O)(=O)NCC(C)C)cc1C(=O)O the results were ALR H2O2 inh 4.4, Beta cell apopt -0.9, Calb FLC -6.0, B2AR ag 0.8, LANA-H2A inh 8.3 and Bfl-1 A1 inh 0.4.
Screening CCCCCn1c(=O)[nH]c2cc(C(=O)NCc3ccccn3)ccc2c1=O returned Beta cell apopt 1.5, Calb FLC -9.9, B2AR ag -15.3, rRNA inh HTS -1.6, T cruzi repl -7.8, LANA-H2A inh 0.9, Bfl-1 A1 inh -0.5, rRNA inh HTS OD600 -6.5 and rRNA inh HTS RFP -8.7.
Screening CN(CC(=O)NCC(=O)Nc1ccc(F)cc1)C1CCS(=O)(=O)C1 (stereo unspecified) returned Beta cell apopt 0.2, B2AR ag 0.8, rRNA inh HTS 1.1, LANA-H2A inh 4.3, Bfl-1 A1 inh -0.9, rRNA inh HTS OD600 21.2 and rRNA inh HTS RFP 0.9.
Screening Cc1ccc(S(=O)(=O)N(C)CCCC(=O)N2CCN(C=O)CC2)cc1 returned ALR H2O2 inh 3.0, Beta cell apopt 0.2, Calb FLC -1.7, B2AR ag 8.6, T cruzi repl 5.3, LANA-H2A inh -0.3 and Bfl-1 A1 inh 0.6.
For Cc1ccc(NC(=O)CSc2nc(NS(=O)(=O)c3ccc(C)cc3)cc(=O)[nH]2)cc1 the results were ALR H2O2 inh 98.5*, Beta cell apopt -6.5, Calb FLC 6.1, B2AR ag -14.3, T cruzi repl -16.6, LANA-H2A inh 5.4 and Bfl-1 A1 inh -0.1.
Cc1ccc(C(=O)c2c3ccc(C(F)(F)F)cc3[n+]([O-])n2CCCC(N)=O)cc1 was read as ALR H2O2 inh 9.7, Beta cell apopt -12.1, Calb FLC 10.2, B2AR ag -18.7, rRNA inh HTS 8.6, T cruzi repl -4.7, LANA-H2A inh 5.1, Bfl-1 A1 inh 0.7, rRNA inh HTS OD600 -2.7 and rRNA inh HTS RFP -1.0.
Screening COc1c(C)cc(C(=O)C2CCCN(C(=O)c3cccc(-n4cccn4)c3)C2)cc1C (stereo unspecified) returned ALR H2O2 inh -16.2, Beta cell apopt -12.0, Calb FLC 6.6, B2AR ag -16.2, T cruzi repl 0.7, LANA-H2A inh -1.7 and Bfl-1 A1 inh -0.7.
Screening CC1Cc2cc(/C(O)=C3/C(=O)C(=O)N(CCCn4ccnc4)C3c3cccnc3)ccc2O1 (stereo unspecified) returned ALR H2O2 inh 21.5, Beta cell apopt -4.0, Calb FLC -9.6, B2AR ag -2.9, T cruzi repl -9.1, LANA-H2A inh 0.0 and Bfl-1 A1 inh 0.7.
CSc1ccc(-c2nnn(CC(=O)NCc3ccccc3)n2)cc1 was read as ALR H2O2 inh -1.2, Beta cell apopt 2.2, Calb FLC -16.6, B2AR ag -3.6, T cruzi repl 1.1, LANA-H2A inh 2.4 and Bfl-1 A1 inh -0.3.
For Cc1cc(C)n(Cc2nc3ccccc3n2C)n1 the results were ALR H2O2 inh -10.6, Beta cell apopt -2.7, Calb FLC 0.1, B2AR ag -5.3, T cruzi repl -13.8, LANA-H2A inh 3.5 and Bfl-1 A1 inh 1.2.
Screening CC(C)CN(CC(C)C)S(=O)(=O)N1CCC(C(=O)NCCc2ccc(Cl)cc2)CC1 returned ALR H2O2 inh 3.0, Calb FLC -4.2, B2AR ag -1.7, rRNA inh HTS 4.7&0.2, T cruzi repl 51.0, LANA-H2A inh -1.2, Bfl-1 A1 inh 0.5, rRNA inh HTS OD600 3.9&-2.7 and rRNA inh HTS RFP 0.6&-3.7.
`CCCCN1C(=S)NC[C@@H]1c1ccccc1` gave ALR H2O2 inh -9.5, Beta cell apopt -5.6, Calb FLC 11.1, B2AR ag -2.2, rRNA inh HTS 1.6, T cruzi repl -32.6, LANA-H2A inh -2.6, Bfl-1 A1 inh -0.4, rRNA inh HTS OD600 -1.4 and rRNA inh HTS RFP -1.4.
CS(=O)(=O)N1CCC(C(=O)NCc2ccc(Cl)cc2Cl)CC1 was read as ALR H2O2 inh -0.7, Beta cell apopt 1.5, Calb FLC 27.1, B2AR ag 0.5, rRNA inh HTS 8.4, T cruzi repl -13.9, LANA-H2A inh 4.3, Bfl-1 A1 inh 1.4, rRNA inh HTS OD600 12.4 and rRNA inh HTS RFP 3.0.
Cc1ccc(C)c(N(Cc2ccccc2F)S(C)(=O)=O)c1 was read as ALR H2O2 inh -5.4, Beta cell apopt -1.7, Calb FLC 1.8, B2AR ag -9.3, T cruzi repl -2.1, LANA-H2A inh 7.0 and Bfl-1 A1 inh -0.6.
Cc1ccc(-n2nc(C)c3c2OC(N)=C(C#N)C3c2ccoc2)cc1 (stereo unspecified) was read as ALR H2O2 inh 24.4, Beta cell apopt -3.0, Calb FLC -16.8, B2AR ag -1.8, T cruzi repl -9.5, LANA-H2A inh 5.8 and Bfl-1 A1 inh -0.5.
CCOC(=O)COc1c(/C=N\OC)cc(Cl)cc1OC was read as ALR H2O2 inh -24.8, Beta cell apopt -2.2, Calb FLC 2.3, B2AR ag 6.1, rRNA inh HTS -1.9, T cruzi repl -8.1, LANA-H2A inh -2.5, Bfl-1 A1 inh 1.0, rRNA inh HTS OD600 -27.0 and rRNA inh HTS RFP -0.3.
CCOCCCNC(=O)C1CCN(S(=O)(=O)N(CC(C)C)CC(C)C)CC1 was read as ALR H2O2 inh 0.5, Beta cell apopt -5.7, B2AR ag -6.6, LANA-H2A inh -5.1 and Bfl-1 A1 inh -0.1.
`Cn1c(SCc2ccc([N+](=O)[O-])cc2)nnc1-c1cccnc1` gave ALR H2O2 inh -15.2, Beta cell apopt 1.2, Calb FLC 24.0, B2AR ag -3.1, rRNA inh HTS -1.8, T cruzi repl -14.5, LANA-H2A inh -1.5, Bfl-1 A1 inh -0.2, rRNA inh HTS OD600 2.2 and rRNA inh HTS RFP -0.1.
Screening CCC(=O)NC(=S)Nc1cccc(NC(=O)c2ccc(Cl)cc2Cl)c1 returned ALR H2O2 inh -3.4, Beta cell apopt -2.2, Calb FLC -3.5, B2AR ag 1.9, T cruzi repl 14.7, LANA-H2A inh 5.3 and Bfl-1 A1 inh -0.1.
For COC(=O)C(c1ccccc1)C(C(=O)OC)c1ccccc1 (stereo unspecified) the results were Beta cell apopt -8.8, Calb FLC 1.1, B2AR ag -7.6, rRNA inh HTS 4.7, T cruzi repl -14.0, LANA-H2A inh 1.3, Bfl-1 A1 inh -0.3, rRNA inh HTS OD600 7.0 and rRNA inh HTS RFP 2.6.
`CC(C)[C@H](NS(=O)(=O)c1ccccc1)C(=O)OCC(=O)Nc1cccc(S(N)(=O)=O)c1` gave ALR H2O2 inh 4.0, Beta cell apopt 2.8, B2AR ag -5.5, LANA-H2A inh 1.7 and Bfl-1 A1 inh 0.3.
